ALR inh = inhibitors of human ALR sulfhydryl oxidase, primary screen, biochemical, H2O2 detection, HRP-luminol luminescence, single point; FAD-linked sulfhydryl oxidase ALR (Homo sapiens), P55789; purified ALR, DTT oxidation; inhibition, % (test concentration not listed); 290,000 compounds, 3.8% hits;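 active = mean and each replicate at 75% or more; inconclusive = only one of the two met; inactive = neither met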;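 note: stock transfer was 7.5 nL into about 7.5 µL; 0% = neutral wells and 100% = wells with inactivated enzyme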
Target sequence (P55789 whole entry, looked up): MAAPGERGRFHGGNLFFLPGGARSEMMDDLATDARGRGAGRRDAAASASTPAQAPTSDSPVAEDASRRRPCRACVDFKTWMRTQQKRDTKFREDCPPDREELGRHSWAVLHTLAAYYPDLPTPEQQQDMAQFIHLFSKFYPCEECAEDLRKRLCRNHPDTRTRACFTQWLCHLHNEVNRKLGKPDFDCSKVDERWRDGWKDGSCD
Vif A3G = inhibitors of Vif binding to APOBEC3G peptide, primary screen, biochemical, TR-FRET, GST-Vif 1-94, biotin-A3G peptide, dose response retest (AID 1117319); 260,000 compounds, 0.57% hits; one-dose inhibition, %; IC50 in µM for titrated hits; TR-FRET GST-Vif / biotin-A3G peptide binding; higher % means a stronger effect; test concentration not given here; strong numbers were not always called active;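 active = above the screen mean plus three standard deviations and confirmed in dose response; inconclusive = results disagree or hit not tested in dose response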;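 note: Vif residues 1-94 fused to GST binding biotinylated APOBEC3G peptide 110-148; 0% = full assay without inhibitor and 100% = GST in place of GST-Vif; retest series ran down from 100 µM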
FGF22 binding = binders of human FGF22 protein, primary screen, FGF22 synaptogenesis inhibitor project, biophysical, thermal shift, single point; Fibroblast growth factor 22 (Homo sapiens), Q9HCT0; recombinant FGF22 thermal shift, SYPRO orange fluorescence; percent of sucrose octasulfate shift, DMSO zero; calls only at 9.99 µM; 340,000 compounds, 1.5% hits;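 active = melting point raised past a set limit in the mean and every replicate; inconclusive = no clear call; three in four hits are not shown here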
Target sequence (Q9HCT0 whole entry, looked up): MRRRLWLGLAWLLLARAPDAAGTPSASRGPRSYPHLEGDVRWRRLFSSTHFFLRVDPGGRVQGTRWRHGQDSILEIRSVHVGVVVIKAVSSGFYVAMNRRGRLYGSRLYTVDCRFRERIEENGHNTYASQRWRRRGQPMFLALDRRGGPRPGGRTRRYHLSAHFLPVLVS
Ecoli growth = E. coli growth inhibition, primary screen, OD600; Escherichia coli growth, 23 h; hits give low values; OD600 absorbance (concentration not given with the values); 330,000 compounds, 0.21% hits;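 active = OD600 absorbance below the run mean of sample wells minus 3.6 SD, in any replicate, cut at about 0.56 in these data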;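 note: stock transfer was 300 nL into about 60 µL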
rRNA inh HTS = reduced GFP signal of wild-type E. coli, primary screen, bacterial rRNA inhibitor project, GFP/RFP fluorescence, OD600, single point. E. coli WT GFP vs humanized-ribosome RFP mutants, 24 h; hits give low values; DMSO median 0, no signal -100. GFP signal change (wild-type ribosome), % (no concentration beside the values). 350,000 compounds, 1.6% hits. AID 720706, 2013;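 active = significant combined selectivity score with lowered wild-type GFP, culture density cut under 30%, mutant RFP and density less affected; inactive = any of these conditions unmet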; note: one replicate is shown; some compounds called inactive have numbers as strong as hits
MLL AF4-AF9 inh = inhibitors of AF4 peptide binding to AF9, primary screen, biochemical, AlphaScreen, biotin-AF4 peptide, FLAG-AF9, single point; Protein AF-9 (Homo sapiens), P42568; inhibition, % at 10 µM; 350,000 compounds, 0.47% hits; AID 651704, 2012;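 active = every replicate reaching a set inhibition limit, whatever the replicate mean, cut at about 25% in these data; inconclusive = mean inhibition reaches that limit but some replicates miss it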;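 note: 0% = plate neutral control median and 100% = total signal loss; the record names both 10 and 1 µM as test concentration; the first replicate is given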
Target sequence (P42568 whole entry, looked up): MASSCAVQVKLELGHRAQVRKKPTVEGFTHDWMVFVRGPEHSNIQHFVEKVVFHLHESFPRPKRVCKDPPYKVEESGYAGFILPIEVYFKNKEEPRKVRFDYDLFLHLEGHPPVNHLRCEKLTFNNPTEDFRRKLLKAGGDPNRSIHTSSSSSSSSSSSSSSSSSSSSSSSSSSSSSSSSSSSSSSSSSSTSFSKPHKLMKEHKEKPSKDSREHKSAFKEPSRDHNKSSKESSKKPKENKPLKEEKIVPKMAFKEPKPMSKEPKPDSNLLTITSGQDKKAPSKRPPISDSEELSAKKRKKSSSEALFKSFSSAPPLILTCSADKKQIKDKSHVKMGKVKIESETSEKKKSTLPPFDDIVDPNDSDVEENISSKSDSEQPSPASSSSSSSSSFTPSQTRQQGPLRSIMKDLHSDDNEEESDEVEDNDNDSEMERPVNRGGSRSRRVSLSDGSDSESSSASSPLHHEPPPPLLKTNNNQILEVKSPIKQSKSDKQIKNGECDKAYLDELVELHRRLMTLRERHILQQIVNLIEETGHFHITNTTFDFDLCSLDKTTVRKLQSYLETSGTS
HNF4A DNA FP = change in binding of human HNF4A to DNA, primary screen, biochemical, fluorescence polarization, FITC-DNA | 360,000 compounds, 0.3% hits | activity change, % at 10 µM | AID 1224865, 2016 | 1 h; in the data active = activity change above about 30%, passing the limit was not always enough;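 note: controls were the assay level and a saturating level of protein; the project sought stronger binding though the title names inhibitors; some compounds called inactive have numbers as strong as hits; positive values seem to mean higher polarization but the record does not say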
rRNA inh HTS OD600 = also measured in rRNA inh HTS; calls as there; OD600 change, %; measured here: OD600 growth;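 optical density of the mix in the first replicate; 0 = DMSO median and -100 = no signal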
rRNA inh HTS RFP = second read-out of rRNA inh HTS, no call of its own (marks repeat the call); RFP signal change, %; measured here: RFP humanized mutant strains;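 first replicate; 0 = DMSO median and -100 = no signal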
* marks the source's active call; other numbers are inactive results; & = joins results of further samples. The list is partial; count on the stated rates, not on these rows.

Results for CCCC(=O)Nc1ccc(C(=O)NNC(=O)c2ccco2)cc1 ?
ALR inh: -3.3; Vif A3G: 10.4%; Ecoli growth: 0.703; HNF4A DNA FP: 1.9

What do the screens show for `Cc1cc(NC(=O)CSC2=NCCS2)no1`?
Vif A3G: -2.6%; Ecoli growth: 0.706; HNF4A DNA FP: 3.4

How did CN1CCN(c2ccc([N+](=O)[O-])cc2C(=O)c2ccccc2)CC1 do in these assays?
ALR inh: 1.2; FGF22 binding: inactive; Ecoli growth: 0.682; rRNA inh HTS: 17.6; MLL AF4-AF9 inh: 4.9; HNF4A DNA FP: -0.7; rRNA inh HTS OD600: 7.5; rRNA inh HTS RFP: -4.0

Results for CC(C)c1ccc(NC(=O)N2CCCC2C(=O)Nc2ccc(-n3cnnn3)cc2)cc1 (centres undefined) ?
ALR inh: 2.0; FGF22 binding: inactive; Ecoli growth: 0.706; rRNA inh HTS: -1.3; MLL AF4-AF9 inh: -0.7; HNF4A DNA FP: 0.7; rRNA inh HTS OD600: -8.5; rRNA inh HTS RFP: 1.4

How did COC(=O)c1ccc(CSc2nc3ccccc3c(=O)n2CC(C)C)o1 do in these assays?
ALR inh: -4.5; Vif A3G: inconclusive; Ecoli growth: 0.789; HNF4A DNA FP: 0.6

How did CN(Cc1cccc2cnccc12)C(=O)c1cc(COc2ccc(F)cc2F)on1 do in these assays?
Vif A3G: -7.8%; FGF22 binding: inactive; Ecoli growth: 0.699; MLL AF4-AF9 inh: -2.0; HNF4A DNA FP: 1.0

How did O=C(C[C@@H]1CC[C@H]2[C@@H](COC[C@H](O)CN2C(=O)Nc2ccccc2)O1)NCCc1ccncc1 do in these assays?
FGF22 binding: inactive; rRNA inh HTS: 6.3; MLL AF4-AF9 inh: -0.9; rRNA inh HTS OD600: 12.9; rRNA inh HTS RFP: -0.4

How did COc1ccc(CC(=O)N/N=C(\C)CC(=O)Nc2ccc3c(c2)OCCO3)cc1 do in these assays?
Vif A3G: -2.2%; FGF22 binding: inactive; rRNA inh HTS: 3.1; MLL AF4-AF9 inh: 2.8; HNF4A DNA FP: 1.6; rRNA inh HTS OD600: -3.8; rRNA inh HTS RFP: -1.2

How did COc1nc(-c2ccccc2)ccc1-c1noc(C)n1 do in these assays?
ALR inh: -1.1; Vif A3G: 13.3%; Ecoli growth: 0.625; rRNA inh HTS: -12.5; HNF4A DNA FP: -2.9; rRNA inh HTS OD600: -6.7; rRNA inh HTS RFP: -10.1

How did CC1(C(=O)NS(=O)(=O)c2ccc(Cl)cc2)CCN1C(=O)c1cccc(F)c1 (centres undefined) do in these assays?
FGF22 binding: inactive; rRNA inh HTS: 2.6; MLL AF4-AF9 inh: -3.1; HNF4A DNA FP: -2.0; rRNA inh HTS OD600: 7.1; rRNA inh HTS RFP: -0.5

Results for CCC(C)c1ccccc1NS(=O)(=O)c1cnn(CC)c1 (centres undefined) ?
ALR inh: -4.0; Vif A3G: 4.2%; FGF22 binding: inactive; Ecoli growth: 0.714; rRNA inh HTS: 0.7; MLL AF4-AF9 inh: 0.2; HNF4A DNA FP: 1.2; rRNA inh HTS OD600: -15.7; rRNA inh HTS RFP: -1.4

Results for COc1ccc2c3c([nH]c2c1)[C@H](CO)N(C(=O)c1ccccc1)CC31CCN(C)CC1 ?
FGF22 binding: inactive; rRNA inh HTS: -1.4; MLL AF4-AF9 inh: -2.6; rRNA inh HTS OD600: -0.9; rRNA inh HTS RFP: -2.4

How did Cc1ccccc1NC(=O)c1cccc(S(C)(=O)=O)c1 do in these assays?
ALR inh: -25.7; Vif A3G: 2.6%; FGF22 binding: inactive; Ecoli growth: 0.663; rRNA inh HTS: 9.0; MLL AF4-AF9 inh: -8.4; HNF4A DNA FP: -3.1; rRNA inh HTS OD600: -7.3; rRNA inh HTS RFP: 2.2

How did Nc1c(C(=O)NCc2ccccc2)c2nc3ccccc3nc2n1CCCN1CCOCC1 do in these assays?
ALR inh: -2.7; Vif A3G: 5.6%; FGF22 binding: inactive; Ecoli growth: 0.665; rRNA inh HTS: 0.1; MLL AF4-AF9 inh: -61.0; HNF4A DNA FP: 4.0; rRNA inh HTS OD600: -5.9; rRNA inh HTS RFP: 4.1

Results for Cc1nc2ncccn2c1-c1csc(Nc2ccccc2)n1 ?
ALR inh: 19.6; Vif A3G: 1.6%; FGF22 binding: inactive; Ecoli growth: 0.627; rRNA inh HTS: 19.2; MLL AF4-AF9 inh: -14.5; HNF4A DNA FP: 3.0; rRNA inh HTS OD600: 8.7; rRNA inh HTS RFP: 4.1

What do the screens show for `COc1c2c(c3c(c1OC)c(=O)c1ccccc1n3C)OCO2`?
Vif A3G: -1.2%; FGF22 binding: inactive; Ecoli growth: 0.696; rRNA inh HTS: 5.8; MLL AF4-AF9 inh: -3.3; HNF4A DNA FP: -8.5; rRNA inh HTS OD600: 6.1; rRNA inh HTS RFP: 2.3

How did CCOc1c2ccc(C(=O)NCc3ccc(C)cc3)cc2nn1CCOC do in these assays?
ALR inh: -6.9; Vif A3G: 7.0%; FGF22 binding: inactive; Ecoli growth: 0.716; rRNA inh HTS: 4.7; MLL AF4-AF9 inh: -9.8; HNF4A DNA FP: 0.4; rRNA inh HTS OD600: 1.5; rRNA inh HTS RFP: -2.8

How did Cc1sc(NC(=O)CSc2nnnn2C2CCCCC2)c(C#N)c1C do in these assays?
ALR inh: 14.3; Vif A3G: -2.0%; Ecoli growth: 0.706; HNF4A DNA FP: 0.2

How did C[C@H]1CN([C@@H](C)CO)C(=O)c2cccc(NC(=O)c3ccncc3)c2O[C@H]1CN(C)C(=O)Nc1ccccc1 do in these assays?
ALR inh: -1.7; FGF22 binding: inactive; rRNA inh HTS: 0.6&0.9; MLL AF4-AF9 inh: -2.4&-0.5; HNF4A DNA FP: 14.6; rRNA inh HTS OD600: 5.2&4.3; rRNA inh HTS RFP: -1.2&-8.7

What do the screens show for `COc1cccc(/C=N/NC(=S)Nc2cccc(C(=O)O)c2)c1`?
ALR inh: 28.3; Vif A3G: 3.3%; FGF22 binding: inactive; rRNA inh HTS: 2.9; MLL AF4-AF9 inh: -2.6; HNF4A DNA FP: 0.2; rRNA inh HTS OD600: -4.2; rRNA inh HTS RFP: -4.4

What do the screens show for `COc1ccc(C(=O)NCCc2ccccc2)cc1[N+](=O)[O-]`?
ALR inh: 1.4; FGF22 binding: inactive; Ecoli growth: 0.653; rRNA inh HTS: -3.3; MLL AF4-AF9 inh: -1.4; HNF4A DNA FP: 1.2; rRNA inh HTS OD600: 2.2; rRNA inh HTS RFP: 0.8

How did COc1ccc(C(CNC(=O)COc2ccccc2C#N)N2CCOCC2)cc1 (centres undefined) do in these assays?
ALR inh: 61.0; Vif A3G: 1.1%; Ecoli growth: 0.7; HNF4A DNA FP: -0.7

How did CC(C)CNC1CS(=O)(=O)CC1O (centres undefined) do in these assays?
ALR inh: -14.4; Vif A3G: inconclusive; FGF22 binding: inactive; Ecoli growth: 0.7; rRNA inh HTS: 11.3; MLL AF4-AF9 inh: 5.8; HNF4A DNA FP: 2.0; rRNA inh HTS OD600: 9.6; rRNA inh HTS RFP: 1.2

Results for COCC(=O)N1[C@H](C#N)[C@@H](c2ccccc2)[C@@H]1CO ?
FGF22 binding: inactive; rRNA inh HTS: 6.5; MLL AF4-AF9 inh: -2.0; rRNA inh HTS OD600: 19.5; rRNA inh HTS RFP: -2.6

How did COC(=O)c1ccc(Cn2cc(C(F)(F)F)cc([N+](=O)[O-])c2=O)cc1 do in these assays?
ALR inh: -13.1; Vif A3G: -7.9%; FGF22 binding: inactive; Ecoli growth: 0.639; rRNA inh HTS: 9.6; MLL AF4-AF9 inh: 0.0; HNF4A DNA FP: 1.1; rRNA inh HTS OD600: 10.0; rRNA inh HTS RFP: -2.4

What do the screens show for `CCCCNC(=O)CSc1nc2ccc(C)cc2[nH]1`?
ALR inh: -0.8; Vif A3G: -1.2%; FGF22 binding: inactive; Ecoli growth: 0.67; rRNA inh HTS: 7.2; MLL AF4-AF9 inh: -1.4; HNF4A DNA FP: 2.1; rRNA inh HTS OD600: 5.2; rRNA inh HTS RFP: 2.8

How did C=CCNC(=O)C12CCC(C)(C(=O)C1Br)C2(C)C (centres undefined) do in these assays?
ALR inh: -1.5; Vif A3G: -2.6%; Ecoli growth: 0.679; HNF4A DNA FP: 1.7

Results for CC(C)c1ccc(C(=O)NCc2ccc(Cl)cc2)cc1 ?
ALR inh: -1.1; Vif A3G: 9.4%; Ecoli growth: 0.65; HNF4A DNA FP: 1.3

Results for COc1ccc(C)cc1NC(=O)C1CCCCN1S(=O)(=O)c1ccccc1 (centres undefined) ?
FGF22 binding: inactive; Ecoli growth: 0.705; rRNA inh HTS: -7.8; MLL AF4-AF9 inh: 0.1; HNF4A DNA FP: 1.5; rRNA inh HTS OD600: -5.1; rRNA inh HTS RFP: 2.3

How did CCOc1ccc(C(=O)NCC(=O)N2CCCC2)cc1 do in these assays?
ALR inh: 0.3; Vif A3G: 5.2%; FGF22 binding: inactive; Ecoli growth: 0.624; rRNA inh HTS: 18.4; MLL AF4-AF9 inh: -3.3; HNF4A DNA FP: -0.7; rRNA inh HTS OD600: 13.6; rRNA inh HTS RFP: -2.1

The list goes on, starting with the last two of the part before.
Results for COc1ccc(C)cc1NC(=O)C1CCCCN1S(=O)(=O)c1ccccc1 (centres undefined) ?
FGF22 binding: inactive; Ecoli growth: 0.705; rRNA inh HTS: -7.8; MLL AF4-AF9 inh: 0.1; HNF4A DNA FP: 1.5; rRNA inh HTS OD600: -5.1; rRNA inh HTS RFP: 2.3

How did CCOc1ccc(C(=O)NCC(=O)N2CCCC2)cc1 do in these assays?
ALR inh: 0.3; Vif A3G: 5.2%; FGF22 binding: inactive; Ecoli growth: 0.624; rRNA inh HTS: 18.4; MLL AF4-AF9 inh: -3.3; HNF4A DNA FP: -0.7; rRNA inh HTS OD600: 13.6; rRNA inh HTS RFP: -2.1

How did O=C1CC(SCCc2nc3ccccc3[nH]2)C(=O)N1c1ccc(F)c(Cl)c1 (centres undefined) do in these assays?
ALR inh: 5.9; Vif A3G: 2.9%; Ecoli growth: 0.677; HNF4A DNA FP: -0.7

How did CC(=O)NC12CC3CC(C1)CC(C(=O)OCC(=O)Nc1ncc(Cl)cc1Cl)(C3)C2 do in these assays?
ALR inh: -5.2; Vif A3G: 15.5%; Ecoli growth: 0.716; HNF4A DNA FP: -3.0

Results for CN1CCN(C(=O)C2=C[C@@H](C3CC3)C[C@@H](OCc3ccc(CO)cc3)O2)CC1 ?
ALR inh: -8.6; Vif A3G: inconclusive; FGF22 binding: inactive; rRNA inh HTS: -0.6; MLL AF4-AF9 inh: -1.4&-1.0; HNF4A DNA FP: 5.8; rRNA inh HTS OD600: 12.8; rRNA inh HTS RFP: -11.2

How did COc1ccc(S(=O)(=O)NC(C)c2ccc3c(c2)OCCO3)cc1 (centres undefined) do in these assays?
Vif A3G: 1.4%; FGF22 binding: inactive; rRNA inh HTS: 5.6; MLL AF4-AF9 inh: -1.7; HNF4A DNA FP: 4.6; rRNA inh HTS OD600: -0.3; rRNA inh HTS RFP: 2.5

How did CC(=O)Nc1ccc(S(=O)(=O)N(C)c2ccc(O)cc2)cc1 do in these assays?
ALR inh: 97.9*; Vif A3G: -3.4%; Ecoli growth: 0.657; HNF4A DNA FP: -0.8
